# AID504770: growth inhibition of E. coli YBA685, primary screen, V. cholerae RctB inhibitors; E. coli YBA685 rctB-dependent plasmid, OD600 growth, 3 h; active compounds read low; z-score (test concentration not listed); hit rate 0.27% among 130,000; AID 504770, 2011;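 active means z-score under -2 on both plates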;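 further: wells of about 30 µL received 100 nL stock; score is relative to mean and SD of the test wells; the first replicate is given; strong numbers were not always called active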
# Ba CapD inh: Bacillus anthracis CapD inhibitors, primary screen, biochemical, fluorescence intensity | CapD gamma-glutamyltranspeptidase (Bacillus anthracis Ames Ancestor) | purified CapD enzyme, fluorescence intensity read-out; active compounds read low; some hits fall short of the stated cut | z-score (test concentration not listed) | hit rate 0.23% among 140,000;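 active means z-score under -4 in either of two replicates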;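 further: stock transfer was 100 nL into about 40 µL; score is relative to mean and spread of the plate; one replicate is shown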
# * marks the source's active call; other numbers are inactive results; . = no result given; & = joins results of further samples.
entry	SMILES	AID504770	Ba CapD inh
1	O=C(O)C1CCCN1C(=O)c1cccnc1 (stereo not given)	2.2	-0.575
2	CCN(CC(=O)NCc1ccc(F)cc1)C(=O)c1cc(S(=O)(=O)N2CCOCC2)ccc1Cl	-1.2	.
3	CCCCOc1ccc(C(=O)N=c2sccn2C)cc1OC	-1	.
4	O=S(=O)(c1ccc(NCc2nc3ccccc3[nH]2)nc1)N1CCCC1	0.5	.
5	O=C(NC1CC1)c1cc(-c2ccccc2)nc2ccccc12	-0.45	2.46
6	O=C(NS(=O)(=O)c1ccc(Cl)cc1)C1CC1	-0.05	.
7	Cc1ccc(-c2nc3scc(CCNC(=O)Cc4ccccc4)n3n2)cc1	-0.3	.
8	C(=N\c1n[nH]c(/N=C/c2ccccc2)n1)/c1ccccc1	0.05	0.8
9	CCn1c2ccccc2c2cc(CN3CCC(NS(=O)(=O)c4ccc(Br)cc4OC(F)(F)F)C3)ccc21 (stereo not given)	.	8.59
10	COc1ccc(C2C(C(=O)OCC3CCCO3)=C(C)NC3=C2C(=O)CC(c2cccs2)C3)cc1OC (stereo not given)	.	10.9
11	CC1(C)CC(N2C(=O)OC(C)(C)C2(C)O)CC(C)(C)N1 (stereo not given)	.	-0.095
12	O=C(NCc1cccs1)c1cc(NS(=O)(=O)c2ccc(F)cc2)ccn1	-0.35	0.165
13	CCCc1c(C(=O)OCC)[nH]c2c1C(=O)CC(c1ccccc1)C2 (stereo not given)	1.8	6.99
14	CCCCN(C)C(=O)c1nn(C)c2c1CSc1ccccc1-2	-0.1	0.045
15	COC(=O)c1ccc(NC(=O)Nc2ccc3c(c2)nc(C)n3C)cc1	-0.75	.
16	CS(=O)(=O)Nc1ccc2[nH]cc(C#N)c2c1	-0.55	0.12
17	O=C(COc1ccc2ccccc2c1)NS(=O)(=O)c1ccccc1	0.1	0.105
18	COc1ccc2[nH]c(=O)c(CN(Cc3ccco3)C(=S)NCc3ccco3)cc2c1	-0.9	.
19	CC(=O)NCCc1cc2ccc(C)cc2[nH]c1=O	-0.05	12.7
20	COc1ccc(N2CCN(CC(=O)c3ccc(OC)c(OC)c3)CC2)cc1	-0.45	.
21	NC(=O)C(Cc1ccccc1)NC(=O)c1ccccc1SCc1ccc(F)cc1 (stereo not given)	-0.2	-1.04
22	CCC(C)(C)c1ccc(S(=O)(=O)NCC(O)c2cccc(O)c2)cc1 (stereo not given)	.	0.425
23	Cc1ccc(C(=O)NCc2ccc(-c3nc4ncccc4o3)cc2)cc1	-0.15	7.67
24	Cn1nc(C(F)(F)F)cc1Cl	-0.15	0.33
25	CCOC(=O)c1sc(SC)c(C#N)c1N	.	-0.01
26	O=C(Cn1c(=O)c2c(ncn2Cc2ccccc2)n(Cc2ccccc2)c1=O)N1CCCC1	-0.4	.
27	CCC(CC)C(=O)c1c[nH]c(C(=O)OC)c1	-0.25	0.295
28	CCOc1ccc(C2=NN3C(C2)c2cc(Cl)ccc2OC3c2ccc(OC)cc2)cc1 (stereo not given)	.	-0.165
29	Cc1ccccc1C(=O)NC1CCN(Cc2nnnn2Cc2ccccc2)CC1	0.25	.
30	Cc1cc(NC(=O)CC(C)CC(=O)O)no1 (stereo not given)	-0.2	0.575

# One compound at a time, from the list above. Values in the order: AID504770	Ba CapD inh
# Shown for CC1(C)CC(N2C(=O)OC(C)(C)C2(C)O)CC(C)(C)N1 (stereo not given) → .	-0.095
# Shown for Cc1ccc(C(=O)NCc2ccc(-c3nc4ncccc4o3)cc2)cc1 → -0.15	7.67
# Shown for Cc1cc(NC(=O)CC(C)CC(=O)O)no1 (stereo not given) → -0.2	0.575
# Shown for CCOc1ccc(C2=NN3C(C2)c2cc(Cl)ccc2OC3c2ccc(OC)cc2)cc1 (stereo not given) → .	-0.165
# Shown for CCN(CC(=O)NCc1ccc(F)cc1)C(=O)c1cc(S(=O)(=O)N2CCOCC2)ccc1Cl → -1.2	.

# (next part)
entry	SMILES	AID504770	Ba CapD inh
31	C=CCOc1ccc(CN2CCCCC2COC(=O)N2CCN(c3cc(C(F)(F)F)ccn3)CC2)cc1 (stereo not given)	.	64.3
32	N#Cc1cccc(CSc2ccccn2)c1	-0.75	-0.035
33	Cc1cc(C(C)(C)C)cc(C)c1C(=O)O	0.55	-0.8
34	Oc1ccccc1-c1cc(Cl)ncn1	.	0.075
35	O=C(Nc1cccc(C(F)(F)F)c1)c1ccc(Cl)cc1	.	-0.33
36	C=CCn1c(=O)n(CC=C)c(=O)n(Cc2ccc(C#N)cc2)c1=O	-2.35	.
37	Cc1cnn(C(=S)NCc2ccc(Cl)cc2)c1	0.6	-0.64
38	CC(Nc1ccccc1)C(=O)N1CCc2ccccc21 (stereo not given)	-0.65	.
39	CC1=C(C(=O)OCc2ccccc2)C(c2coc3ccc(Cl)cc3c2=O)C2=C(CCCC2=O)N1 (stereo not given)	.	-0.495
40	C#CCSc1ncc(-c2ccc(Cl)cc2)n1C	0.75	-0.535
41	CCOC(=O)c1c(-c2c(Cl)cccc2Cl)noc1C	1	0.715
42	CC(=O)NC1[C@@H](O)OC(CO)[C@@H](O)[C@H]1O[C@H](C)C(=O)O (stereo not given in full)	.	-0.15
43	CS(=O)(=O)OC1CSC[C@H]1NC(=O)c1ccccc1 (stereo not given in full)	.	0.455
44	CC(NC(=O)c1cccc(C(F)(F)F)c1)c1ccc(S(C)(=O)=O)cc1 (stereo not given)	.	-0.025
45	N#CC1=C(N)OC2=C(C(=O)CCC2)C12C(=O)Nc1ccc(F)cc12 (stereo not given)	-0.05	.
46	O=C(O)c1cc2c(cc1NC(=O)C1CCCC1)OCCCO2	-0.5	.
47	OCCN1CN=C(SCc2ccc(Cl)c(Cl)c2)NC1	-1	0.54
48	NC(C(=O)O)c1ccccc1F (stereo not given)	-0.75	0.25
49	O=C(CSc1nc2ccccc2[nH]1)Nc1nc2c(ccc3ccccc32)s1	.	-0.215
50	CN(C)C(=O)Oc1nnc(SCC(=O)c2ccc3c(c2)OCCO3)n1C1Cc2ccccc2C1	-1.55	0.35
51	O=c1c(-c2ccc(Br)cc2)coc2cc(O)cc(O)c12	0.2	.
52	N#CCN(CC#N)C(=O)c1cc(Cl)ccc1Cl	1.95	-0.695
53	c1ccc(CN2CCC(c3nnc(-c4ccccc4)o3)CC2)cc1	.	0.16
54	CCC(=O)Nc1nnc(SCc2ccc(C(F)(F)F)cc2)s1	-1.2	-0.01
55	Cc1ccc2nc(-c3c(F)cccc3Cl)oc(=O)c2c1	.	0.775
56	Cc1cc(C)n2c(Nc3cccc(C(F)(F)F)c3)c(-c3ccc(O)cc3)nc2n1	-0.6	0.1
57	CC1COC(CC(C)c2ccccc2)O1 (stereo not given)	-0.4	0.15
58	CCC(CO)NC(=O)c1cc2c(n(-c3ccccc3)c1=O)CC(C)(C)CC2=O (stereo not given)	-0.3	15.6
59	CC(C)(C)OC(=O)N1CCN(S(=O)(=O)c2ccc(C#N)cc2)CC1	.	-0.595
60	CSC1=NCCCN1C(=O)c1ccccc1I	-0.55	-0.35
61	Cc1nc(SCC(=O)NC2CCCC2)[nH]c(=O)c1Cc1ccccc1	1.1	1.19
62	O=C1C=C(N2CCCCC2)C2(CCCCC2)O1	1.9	.
63	O=S1(=O)N=S(c2ccccc2)c2ccccc21 (stereo not given)	0.1	-0.58
64	Nc1ccccc1N1CCN(C(=O)c2ccccc2)CC1	-0.1	.
65	O=C(OC(C(=O)Nc1ccc(Cl)cc1C(F)(F)F)c1ccccc1)c1ccncc1 (stereo not given)	-0.65	-0.865
66	O=[N+]([O-])c1ccc(N2CCN(S(=O)(=O)c3cccc4nsnc34)CC2)cc1	.	-0.48
67	Nc1nc(COc2ccccc2Cl)nc(N2CCOCC2)n1	.	0.22
68	Cc1csc(NC(=O)NC(C)(C)C)n1	-0.1	-0.355
69	N#Cc1ncoc1-c1cccc(C(F)(F)F)c1	-0.8	0.015
70	O=C(O)CSc1ccc2ccccc2n1	-0.6	3.84
71	CC(C)(C)c1ccc(C(=O)Nc2ccc(S(=O)(=O)N3CCCCC3c3cccnc3)cc2)cc1 (stereo not given)	.	-0.38
72	O=C(c1ccccc1)c1cnn(-c2ccc(Cl)cc2)n1	0.15	0.02
73	CC1Cc2cc(S(=O)(=O)N(C)CC(=O)NCc3ccccc3)ccc2N1C(=O)C1CC1 (stereo not given)	2.45	-0.425
74	Cc1cc(C)cc(NC(=O)Cn2cnc3c(nnn3Cc3ccc(F)cc3)c2=O)c1	0.05	0.385
75	COc1ccc(NC2=NCC(C)S2)cc1 (stereo not given)	-0.9	.
76	Nc1oncc1-c1ccccn1	.	0.24
77	CCC1(C)Cc2c(sc3nc(SC)n(-c4ccc(OC)cc4)c(=O)c23)CO1 (stereo not given)	.	-1.24
78	O=C(N/N=C/c1cccc2c1OCO2)c1cc(Cl)ccc1Cl	.	2.77
79	O=C(NCc1ccccn1)C1CC(c2cccc(Br)c2)=NO1 (stereo not given)	1.85	0.135
80	O=C(O)CSc1nc2ccc(C(=O)c3ccccc3)cc2[nH]1	0	.
81	CCC(Sc1nc2nccnc2c(=O)n1Cc1ccccc1)C(=O)NC1CCCCC1 (stereo not given)	-0.15	-0.47
82	O=C(Nn1c(-c2ccc(Br)cc2)nc2ccccc2c1=O)c1ccc([N+](=O)[O-])cc1Cl	.	-0.53
83	Cc1ccccc1CN1C(=O)/C(=C\c2ccc(C(=O)N3CCOCC3)cc2)Sc2ccccc21	-0.05	3.23
84	Cc1noc(/C=C/N(C)C)c1S(=O)(=O)N(C)c1ccc(C(C)C)cc1	-0.95	-2.9
85	Cc1cc(NC(=O)COC(=O)C2CCN(S(=O)(=O)c3ccc(C(C)C)cc3)CC2)no1	-0.5	.
86	CCCCCCc1ccc(C(=O)NNC(=O)Cc2ccsc2)cc1	.	-1.15
87	CC1=C(C#N)S(=O)(=O)C(C#N)C(c2cccc(C(F)(F)F)c2)C1 (stereo not given)	.	1.27
88	CC(Sc1ccc2c(c1)OCCO2)C(=O)Nc1ccccc1C#N (stereo not given)	0.15	.
89	CCc1ccccc1OCCCN(CC)CC	-0.2	.
90	C/C(=N\OC(=O)c1ccc(Cl)cc1)c1ccn(S(=O)(=O)c2ccccc2)c1	.	0.185

# (listing goes on)
entry	SMILES	AID504770	Ba CapD inh
91	COc1ccc(/C=C/C(=O)NCCSc2c[nH]c3ccccc23)cc1OC	-0.85	9.33
92	COc1ccccc1N(CC(=O)NC1CCCCC1)C(=O)c1csnn1	0.15	.
93	Nc1c(C(=O)O)noc1C(=O)c1ccccc1	-0.15	2.44
94	O=C(O)Cn1c2c(c3cc(F)ccc31)CCCC2	-0.85	.
95	N#Cc1nc(-c2ccccc2)oc1NN	-1.6	15.1
96	CCn1c(Sc2c(C)c3cc4c(cc3[nH]c2=O)OCO4)nnc1-c1ccccc1	-0.5	3.54
97	NC(=O)c1ccc(OCc2cc3c(cc2Br)OCCO3)cc1	1.5	.
98	O=C(CC1S/C(=N/N=C/c2ccco2)NC1=O)Nc1ccc(Cl)cc1 (stereo not given)	0.7	.
99	COc1ccc(CCNC(=S)Nc2ccc(N3CCOCC3)c3nonc23)cc1OC	-0.6	-1.21
100	O=c1[nH]nc(-c2cccs2)cc1Cc1ccsc1	0	0.925
101	CON(C)C(=O)c1sc2ccccc2c1Cl	-0.35	-0.06
102	CCSc1sc(C(=O)OC)c(-c2ccc(Cl)cc2)c1C#N	.	0.82
103	COc1cc(C2C(C#N)=C(N)Oc3n[nH]c(-c4ccccc4)c32)ccc1OC(=O)N1CCOCC1 (stereo not given)	.	0.085
104	Cc1ccc(CC(C#N)Sc2nnc(COc3ccccc3Cl)n2C)cc1 (stereo not given)	-0.5	.
105	Cc1cc(N=Cc2ccc3ncccc3c2)ccc1Br	0	-0.515
106	O=C(Nc1cccc(C(=O)N2CCN(C(=O)c3ccco3)CC2)c1)c1ccccc1	-0.45	-0.165
107	CC(C)(C#N)N1CCOCC1	0.05	.
108	O=C(CCC(=O)c1ccccc1)Nc1nccs1	0.45	.
109	CCC(CC)c1nc2ccccc2[nH]1	-0.9	.
110	Brc1cc2c(cc1COc1ccc(-c3nn[nH]n3)cc1)OCO2	-0.75	1.02
111	CN(C)c1ccc(-c2nnn(CC(=O)N(C)C3CCCCC3)n2)cc1	-0.5	.
112	COC(=O)C1=NN(c2cccc(C(F)(F)F)c2)C(=O)C1	.	-0.97
113	COc1ccc(N=Cc2c(O)ccc3oc4c(c23)CCCC4)cc1	0.3	-0.79
114	CC(=O)Nc1ccc(O[C@@H]2O[C@H](COC(C)=O)[C@@H](OC(C)=O)[C@H](OC(C)=O)[C@H]2NC(C)=O)cc1	.	0.515
115	O=C(N1CCc2ccc(S(=O)(=O)NCc3cccnc3)cc2C1)C(F)(F)F	.	-0.645
116	N#Cc1ccc(NC(=O)COC(=O)CCC2CCCCC2)cc1	-0.3	.
117	COC(=O)COC(=O)c1ccc(Oc2nc(NC(C)C)nc(NC(C)C)n2)cc1	.	0.085
118	O=C(CSc1nc2ccccc2n1CC(=O)N1CCCC1)Nc1ccccc1	-0.5	.
119	CCOC(=O)N1CCN(C(=S)NC(=O)c2cccc(OC)c2)CC1	1.7	.
120	Cc1ccc2nc(CNc3ccc(Cl)cc3)cc(=O)n2c1	1.2	.
121	Cc1ccc(S(=O)(=O)c2cnc(-c3ccccn3)nc2-c2ccccn2)cc1	.	0.035
122	COc1cc(NC(=O)CC(C)(C)C)c(OC)cc1Cl	-0.95	0.26
123	Cc1cc(NC(=O)c2cc(C(C)C)[nH]n2)ccc1Br	1.95	-0.465
124	CC1SC(c2cccnc2)N(c2cc(C(F)(F)F)cc(C(F)(F)F)c2)C1=O (stereo not given)	-0.65	-0.18
125	CC1=C(C(=O)OCC(F)(F)C(F)(F)F)C(c2ccc(Cl)c(Cl)c2)NC(=O)N1 (stereo not given)	.	0.155
126	S=c1[nH]nc(COc2ccccc2)o1	-1.6&-0.55	0.055

# Compounds as they come, and some 0.41% of all compounds hit somewhere here.
